BasE inh: inhibitors of Acinetobacter baumannii siderophore enzyme BasE. purified BasE, fluorescence polarization binding displacement. inhibition, % (no concentration beside the values). 84,000 compounds, 0.1% hits. AID 485350;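 active = both replicates above 25% with normal brightness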;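 also: 0% = negative plate control signal and 100% = positive plate control signal; stock transfer was 100 nL into about 30 µL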
KSHV LANA nucl: LANA-nucleosome interaction inhibition; 51,000 compounds, 0.3% hits; z-score (concentration not given with the values); FITC-LANA1-23 / chicken nucleosome fluorescence polarization; hits give low values;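 active = both repeat wells score below -2 in polarization z-score versus plate sample wells, excluding overly bright wells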;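 also: 100 nL library stock added to about 30 µL; numbers are from one replicate; some results filed as inactive read as strong as hits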
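Assay system: FITC-LANA peptide and chicken nucleosomes; input: 240 nM purified chicken nucleosomes (480 nM peptide binding sites), final; also added: 50 nM FITC-LANA1-23 probe; medium: TEN-BT buffer, pH 7.5; doses: pin-transferred compound, 100 nL; times: 10–45 min, room temperature; technique: fluorescence polarization; replication: duplicates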
Numbers without * were called inactive; . = not tested or not shown; & = joins results of further samples.

Compound | BasE inh | KSHV LANA nucl
CCC(C)N(C(=O)CSc1nc2ccccc2n1-c1ccc(C)cc1)C1CCS(=O)(=O)C1 (stereo not given) | -2.8 | .
S=c1[nH]nc(/N=C/c2ccc(Br)cc2)n1Cc1ccccc1 | 0.7 | -0.53
Cc1ccc(S(=O)(=O)N2CCN(C(=O)c3cc(=O)[nH]c4ccccc34)CC2)c(C)c1 | -0.3 | .
O=C1/C(=C/c2ccc3nccnc3c2)Cc2ccccc21 | -4.2 | 0.42
CCN(CC(=O)Nc1ccc2c(c1)OCCO2)C(=O)c1cccc(S(=O)(=O)N2CCOCC2)c1 | 2.5 | .
CCOC(=O)c1nnn(-c2nonc2-n2cccc2)c1C | -1.1 | 0.87
Cn1c(C(C#N)C(=O)c2ccc3c(c2)S(=O)(=O)c2ccccc2C3=O)nc2ccccc21 (stereo not given) | 7.2 | .
CCOC(=O)N1CCC(=C2c3ccc(Cl)cc3CCc3cccnc32)CC1 | . | 0.21&0.19&-0.054
Cc1cc(=O)[nH]c(O)c1C#N | 3.1 | .
Cc1ccc(OCCn2c(=O)oc3ccccc32)cc1 | 1.4 | 0.14
O=c1[nH]oc2nc(C3CC3)cc(C(F)(F)F)c12 | -3.2 | 0.91
CC1=[N+]([O-])C(C)(C)C(c2ccc(C)cc2)=[N+]1[O-] | 5.2 | -0.5
CC1CN(Cc2cc(=O)n3c(-c4ccccc4)csc3n2)CC(C)O1 (stereo not given) | -5.3 | .
CN(C)c1cc[n+](C(=O)N2CCOCC2)cc1 | 4.0 | .
CCOC(=O)c1oc2ccccc2c1CSc1nnc(Cc2ccccc2)n1C | -0.9 | .
CCOC(=O)c1ccc(N2CCN(c3cccc(OC)c3)CC2)c(NC(=O)Nc2ccc(CC)cc2)c1 | -1.7 | -0.19
Cc1ccc(Nc2nnc(SC(C)C(=O)N3CCC(C)CC3)s2)cc1 (stereo not given) | 4.1 | .
COc1cc(NC(C)=O)ccc1/C=N/NC(N)=S | . | -0.92
Cc1nnc(C)n1/N=C/c1cc(Br)cc(Br)c1O | 7.3 | .
O=C(c1ccccc1)c1ccccc1C(=O)N1CCN(c2ccccc2)CC1 | 2.6 | 0.0085

3 compounds from above, sorted by their value in KSHV LANA nucl, largest number first.
SMILES	KSHV LANA nucl
O=c1[nH]oc2nc(C3CC3)cc(C(F)(F)F)c12	0.91
CC1=[N+]([O-])C(C)(C)C(c2ccc(C)cc2)=[N+]1[O-]	-0.5
COc1cc(NC(C)=O)ccc1/C=N/NC(N)=S	-0.92

(next part)
Compound | BasE inh | KSHV LANA nucl
Cc1cc(C)n(-c2ccc(N/N=C(/C#N)S(C)(=O)=O)cc2)n1 | 3.2 | -0.59
COc1ccc(NC(NC(C)=O)(C(F)(F)F)C(F)(F)F)c(OC)c1 | -0.6 | -0.9
O=C(OCC(=O)N1CCCC1=O)c1cccc2ccccc12 | -0.8 | .
CCOC(=O)c1cnc(COc2ccc(C(C)(C)C)cc2)[nH]c1=O | -0.2 | .
CC(C)(C)c1nc(-c2ccc(-c3ccon3)s2)no1 | -1.9 | .
COc1cc2c3c(c1O)-c1c(cccc1OC)CC3[N+](C)(C)CC2 (stereo not given) | 0.7 | .
CC(CNCc1ccc2c(c1)OCO2)NCc1ccc2c(c1)OCO2 (stereo not given) | -1.6 | .
COc1ccc(OC)c(CNc2ccc3c(c2)CCC3)c1 | 0.2 | -0.34
COc1ccccc1NS(=O)(=O)c1cccc(C(F)(F)F)c1 | 1.2 | 0.27
Cc1ccc(C2=NN(C(=O)CSc3nc(N)cc(N)n3)C(c3ccco3)C2)cc1 (stereo not given) | 2.1 | .
CN(C)C(=O)NC1CC(=O)N(c2ccc3c(c2)OCCO3)C1 (stereo not given) | -1.1 | -0.23
NC(=O)CSCc1nc2ccccc2s1 | 0.5 | .
O=C(Cn1ncn2c(cc3cc(F)ccc32)c1=O)NCCCN1CCOCC1 | -0.7 | -0.5
CC(=O)Nc1ccc(OCC(=O)N(c2ccccc2)C(C)C)cc1 | -1.9 | .
CCN(CC(=O)Nc1ccc2[nH]c(=O)[nH]c2c1)Cc1nc2ccccc2c(=O)[nH]1 | -6.7 | .
O=c1oc2ccccc2c(O)c1/C=N/N1CCOCC1 | 0.7 | .
O=C(Cn1c(=O)cnc2ccccc21)Nc1ccccc1 | -1.8 | .
O=S1(=O)C=C(Sc2nc3ccccc3s2)c2ccccc21 | 0.1 | 0.35
Cn1cnnc1SCNC(=O)C(F)(F)F | 2.0 | .
CN1Cc2ccccc2N(CC(=O)NCc2ccccc2)C1=O | -1.6 | 1.6
CCN(CC)CCNc1ccc(C(F)(F)F)cn1 | -1.9 | -0.49
CCOC(=O)c1sc(COc2ccc(C(C)(C)C)cc2)nc1C | -0.1 | .
Cc1ccc(S(=O)(=O)NCC(C)(C)N2CCOCC2)cc1C | -0.8 | .
CCN=C(Nc1ccc(C(C)(C)C)cc1)SCC1CC1 | 0.4 | .
Cc1cccc(-c2nnc(SCC(=O)NC(=O)Nc3ccccc3F)n2Cc2ccco2)c1 | 0.8 | .
CCN(CC(=O)NCc1ccc(F)cc1)Cn1cnc2ccccc21 | -2.9 | .
C/C(CN1C(=O)CCC1=O)=N/NC(=O)C1CCN(S(=O)(=O)c2ccc(C)cc2)CC1 | -0.9 | -0.23
CC(=O)N/N=C/c1ccc(C)c(C)c1C | 0.6 | 0.2
CCS(=O)(=O)c1nc(S(=O)(=O)c2ccc(Cl)cc2)c(NC(C)C)s1 | 1.2 | -0.56
CCOC(=O)c1[nH]c2ccc(OCC)cc2c1CCCN1C(=O)c2ccccc2C1=O | 1.3 | .
COc1ccc(OC)c(-c2cn(S(=O)(=O)c3ccccc3)nc2N)c1 | -0.2 | 0.67
Cc1cc(C)nc(Sc2ccccc2)n1 | -3.8 | 0.19
CCOc1ccccc1C(=O)N1c2ccccc2Sc2ccccc21 | 0.0 | .
Cc1ccc2c(c1)nnn2CNc1ccc(OC(F)(F)F)cc1 | 2.0 | .
Cc1cc(-c2ccccc2)c(C#N)c(N)n1 | 0.1 | 0.86
O=C(Nc1ccc(F)cc1F)C1CC(c2ccccc2F)=NO1 (stereo not given) | 1.2 | -1
COC(=O)c1ccc(NC(=O)COC(=O)c2cccc(N(C)C)c2)cc1 | 2.2 | .
O=C(Nc1ccc(Cl)cc1)Nc1ncnc2nc[nH]c12 | 0.9 | .
CNC(=O)c1sc(NCc2ccccc2OC)nc1C | 2.0 | .
O=C(OCn1nnc2ccccc2c1=O)C1CCCCC1 | -3.9 | 1.2

The listing continues:
compound	BasE inh	KSHV LANA nucl
CC1(C)Oc2ccc(NC(=O)c3ccco3)cc2O1	-1.7	0.84
NCc1ccc(OC(F)F)cc1	0.6	.
Cc1c(C(=O)OCc2ncc(-c3ccccc3)o2)oc2ccccc12	1.7	.
CC(CCC(N)=O)C(=O)c1ccccc1 (stereo not given)	1.0	0.78
CC1(C)CC(=O)C/C(=N/c2nn[nH]n2)C1	-2.9	.
Cc1nnc2c3ccccc3c(-c3ccc(O)cc3)nn12	2.0	-0.96
CCOc1ncccc1C(=O)OCC(=O)NCc1ccccc1	1.7	.
CC(=O)N1c2ncnn2C(c2ccccc2)CC1c1ccc(C)cc1 (stereo not given)	-0.8	-0.37
Cc1nc(C(=O)Nc2ccc(Cl)cc2)sc1C(=O)Nc1ccc(Cl)cc1	-0.6	.
CC1CCCN(S(=O)(=O)c2ccc(N)cc2)C1 (stereo not given)	0.3	-0.14

Entries above containing an aryl methoxy group, in the order listed:
compound	BasE inh	KSHV LANA nucl
CCOC(=O)c1ccc(N2CCN(c3cccc(OC)c3)CC2)c(NC(=O)Nc2ccc(CC)cc2)c1	-1.7	-0.19
COc1cc(NC(C)=O)ccc1/C=N/NC(N)=S	.	-0.92
COc1ccc(NC(NC(C)=O)(C(F)(F)F)C(F)(F)F)c(OC)c1	-0.6	-0.9
COc1cc2c3c(c1O)-c1c(cccc1OC)CC3[N+](C)(C)CC2 (stereo not given)	0.7	.
COc1ccc(OC)c(CNc2ccc3c(c2)CCC3)c1	0.2	-0.34
COc1ccccc1NS(=O)(=O)c1cccc(C(F)(F)F)c1	1.2	0.27
COc1ccc(OC)c(-c2cn(S(=O)(=O)c3ccccc3)nc2N)c1	-0.2	0.67
CNC(=O)c1sc(NCc2ccccc2OC)nc1C	2.0	.

Other results follow.
compound	BasE inh	KSHV LANA nucl
O=c1n(Cc2ccc(Cl)cc2)c2sc3c(c2c2ncnn12)CCCC3	-0.6	0.18
CC1(C)Cc2c(sc3nc(NN)n(Cc4ccccc4)c(=O)c23)CO1	-2.3	.
CCOC(=O)Cn1cc(/C=C2/C(=O)NC(=S)N(Cc3ccco3)C2=O)c2ccccc21	-1.8	0.069
CCS(=O)(=O)c1ccc2oc(NC(=O)CCCOc3ccc(Cl)cc3C)nc2c1	2.1	.
C1=CC2=Nc3cccc[n+]3CN2C=C1	1.0	-0.58
CN(Cc1ccccc1)C1CC(=O)N(c2ccccc2)C1=O (stereo not given)	-0.1	-0.16
O=CN/N=C/c1cc(Br)ccc1O	-0.3	.
Cc1cc(C)n(-c2ncnc3sc4c(c23)CC(C)CC4)n1 (stereo not given)	1.8	.
O=C(Nc1cccc(C(F)(F)F)c1)c1ccco1	0.4	.
Cc1ccc(-c2cn3c4c(sc3n2)CCCC4)cc1	4.1	-0.7

Individual results from the results shown.
For BasE inh, `CCOC(=O)Cn1cc(/C=C2/C(=O)NC(=S)N(Cc3ccco3)C2=O)c2ccccc21` is entered as -1.8
For KSHV LANA nucl, `O=c1n(Cc2ccc(Cl)cc2)c2sc3c(c2c2ncnn12)CCCC3` is entered as 0.18

The list goes on:
compound	BasE inh	KSHV LANA nucl
CC(C)(C)CNC(=O)c1ccccc1O	22	-0.67
CC(C)Oc1ccc(CNCC2(O)CCOC(C)(C)C2)cc1 (stereo not given)	1.9	0.2
O=C(OCC(=O)N1CCCCCC1)c1ccc2[nH]c3c(c2c1)CCCC3	3.0	.
Cc1nc2ccn(Cc3ccccc3)c(=O)c2cc1C(=O)N1CCN(c2ccccc2)CC1	-0.4	-2.1
N=c1n(CCCOc2ccccc2)c2ccccc2n1CC(N)=O	-3.2	2.6
Cc1ccc(N2C(=O)c3n[nH]c(C)c3C2c2ccccc2)cc1 (stereo not given)	-11	0.91
C=CCC1CC=CC(C)N1C(=O)OCc1ccccc1 (stereo not given)	0.8	.
Cn1c(N)c(C(=O)c2cccc(S(=O)(=O)N3CCc4ccccc43)c2)c(=O)[nH]c1=O	-3.8	.
COc1cc2ncnc(NC(C)c3ccccc3)c2cc1OC (stereo not given)	-1.7	0.11
Clc1ccc(-c2csnn2)cc1	.	0.054
O=c1ncn(-c2cccc(Cl)n2)[nH]1	.	-0.54
N#CCC(=O)N1CCNCC1	-0.1	.
COc1ccc(C)cc1NC(=O)COC(=O)c1c(C)noc1C	-0.6	.
O=C(Nc1cccc(NC(=O)c2c(F)cccc2F)n1)c1c(F)cccc1F	1.6	.
CCc1ccccc1NC1c2ccccc2C(=O)N1Cc1ccco1 (stereo not given)	1.1	0.33
COC(CN(C)C(=O)c1ccc2c(c1)N(Cc1ccc(Cl)cc1)C(=O)c1ccccc1S2=O)OC (stereo not given)	-2.0	-0.65
Cc1cc(C(=O)CSC(=S)N(C)C)c(C)n1-c1nccs1	3.7	.
COc1cccc(C(C(=O)NCc2ccco2)N(C(=O)Cn2nnc3ccccc32)C2CC2)c1OC (stereo not given)	0.3	0.21
Cn1/c(=N\N=C2CCCCC2)sc2ccccc21	0.5	0.045
Cc1ccc2oc(Nc3nc(-c4ccccc4)cc(=O)[nH]3)nc2c1	3.6	-0.22
Cc1cc(=O)c2c(o1)CC(C)(C)CC2=O	1.5	-0.43
C=CCN(CC(=O)Nc1ccc(C)cc1)c1ccccc1	-0.2	.
CCN(C(=O)NC1(C(F)(F)F)Oc2ccc(Cl)cc2O1)C1CCCCC1 (stereo not given)	40*	-0.19
CC(C)Cn1cc(NC(=O)N2C(C)CCCC2C)c2ccccc2c1=O (stereo not given)	0.7	.
CCN1C(=O)/C(=C2\SC(=S)N(c3ccc(OC)cc3)C2=O)c2ccccc21	0.7	.
CCC1CCCCN1C(=O)COC(=O)C1=COCCO1 (stereo not given)	-1.3	.
O=C(NCC1CCCO1)c1ccc(N2CCCCS2(=O)=O)cc1 (stereo not given)	3.5	-0.078
O=C(Nc1scc2c1c(=O)oc1ccccc12)c1ccccc1	1.3	.
CCOC(=O)N1CCN=C1SCc1ccc(C(F)(F)F)cc1	0.8	-1.1
CCC(=O)N(c1nnc(-c2cc(OC)c(OC)c(OC)c2)s1)C1CCCC1	-18	-0.99
CC(=O)N1CCC(=NNc2nc3ccccc3s2)CC1	0.0	.
N#C/C(C(=O)N1CCCCC1)=C1/SC=C(c2ccccc2)N1c1ccccc1	-0.6	0.76
CC(=O)Nc1ccc(NC(=O)C2(c3ccccc3)CCCC2)cc1	-2.5	.
O=C(Nc1cccc(C(F)(F)F)c1)Nc1nc2ccccc2[nH]1	-1.5	.
COc1cccc(-c2nc(COC(=O)c3cc(C)on3)cs2)c1OC	1.1	.
CC(C)C(=O)N1CCN(C2c3ccccc3CC2NS(=O)(=O)c2ccccc2)CC1 (stereo not given)	4.1	.
Nn1cnnc1SCc1ccccc1Oc1ccccc1	2.4	.
CCOc1ccc(C(=O)Nc2ccc3c(c2)C(=O)N(C)C3=O)cc1	0.8	-0.49
CCCn1c(SCC(=O)Nc2cccc(CC)c2)nc2c(oc3ccccc32)c1=O	0.2	-1.9
Cc1csc(=Nc2cccnc2)n1CC1CCCCC1	-2.4	.
CCCCN(C)S(=O)(=O)c1ccc(NC(=O)c2ccncc2)cc1	-0.5	.
NS(=O)(=O)c1ccc(-c2ccc(/C=C3\C(=O)Nc4cc(Cl)ccc43)o2)cc1	-0.5	.
CCc1cc2c(SC(C)C(N)=O)ncnc2s1 (stereo not given)	0.2	.
CN1C2CCC1CC(NC(=O)CSCc1ccc(Cl)cc1)C2 (stereo not given)	.	0.42
O=C1CC(C2CCCO2)C(=O)N1c1cccc(C(F)(F)F)c1 (stereo not given)	3.1	.

Screening results as filed in PubChem BioAssay.

These rows are one share of the data; rates above refer to the full screens.
